Screening results: PubChem BioAssay, National Center for Advancing Translational Sciences (NCATS)
VDR inh: inhibitors of human vitamin D receptor; P11473; VDR-SRC2-3 peptide fluorescence polarization, 2 h; Potency, µM, for inactives: max response, negative = inhibition, hits mostly inhibitors; 400,000 tested, 0.93% active; active means well fitted inhibition curve with a large enough effect; inconclusive means small, poorly fitted or top-dose-only effect, or another doubt; inactive means no such curve, though single readings can be large or run the other way; further: series mostly up to about 120 µM
Target sequence (P11473 whole entry, looked up): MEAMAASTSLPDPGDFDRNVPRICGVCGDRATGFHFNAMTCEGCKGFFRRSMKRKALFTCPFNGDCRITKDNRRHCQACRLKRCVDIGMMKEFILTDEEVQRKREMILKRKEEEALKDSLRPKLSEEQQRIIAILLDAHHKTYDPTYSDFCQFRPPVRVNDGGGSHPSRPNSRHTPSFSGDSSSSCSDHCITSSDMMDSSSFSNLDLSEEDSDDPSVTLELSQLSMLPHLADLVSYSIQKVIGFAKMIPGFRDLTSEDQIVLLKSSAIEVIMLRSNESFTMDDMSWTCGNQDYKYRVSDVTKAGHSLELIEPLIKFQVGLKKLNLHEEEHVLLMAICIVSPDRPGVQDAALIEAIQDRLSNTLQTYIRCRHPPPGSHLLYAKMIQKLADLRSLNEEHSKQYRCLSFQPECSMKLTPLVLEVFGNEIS
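Reagent solutions, kept cold and dark, are dispensed first; compounds are then pinned in at 23 nl, plates briefly spun, and incubated 2 h at ambient temperature. Inhibition of VDR–SRC2-3 peptide binding is read by fluorescence polarization.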
* = called active by the depositor; & = joins results of further samples. On the % scale 0 is the no-effect control and ±100 the full control effect; potency means the concentration at half of the fitted maximal effect. This is a subset; rates above refer to the full screens.

Screening Cc1cc(C)cc(OCC(=O)Nc2nonc2-c2ccc(Br)cc2)c1 returned VDR inh 14.3%.
COc1ccc(S(=O)(=O)N2CCc3ccccc32)cc1C(=O)OCc1c(C)noc1C was read as VDR inh -22.5%.
Screening O=c1oc2ccc3ccccc3c2cc1-c1nnc(Nc2cc(C(F)(F)F)ccc2Cl)s1 returned VDR inh 0.2%.
CC(=O)Nc1ccc(-c2csc(N/N=C\c3ccncc3)n2)cc1 was read as VDR inh -14.3%.
For O=C(OC1CCOC1=O)c1ccc(Cl)c(S(=O)(=O)N2CCOCC2)c1 (stereo not given) the results were VDR inh 10.8%.
`CC(C)CCN(C(=O)c1ccccn1)c1c(N)n(Cc2ccccc2)c(=O)[nH]c1=O` gave VDR inh -1.5%.
Screening Cc1ccc2c(c1)NC(=O)C(CC(=O)NCc1ccc(F)cc1)O2 (stereo not given) returned VDR inh 0.9%.
For CC(C)Cn1cc(C(=O)NCc2cccs2)c2c3ccccc3n(C)c2c1=O the results were VDR inh -4.4%.
Screening O=C(CN(C(=O)c1csnn1)c1cccc(F)c1)NC1CCCC1 returned VDR inh -3.7%.
`Cc1noc(C)c1CSCC(=O)OCC(=O)N1CC(=O)Nc2ccccc21` gave VDR inh 7.6%.
Cc1cc(N2CCOCC2)nc2ccc(NC(=O)CCC(=O)N3CCN(c4cccc(C(F)(F)F)c4)CC3)cc12 was read as VDR inh -9.6%.
For COc1ccc2c(c1)Cc1sc(NC(=O)c3cccc(F)c3)nc1-2 the results were VDR inh -17.2%.
Screening Cc1cc2c(=O)oc(-c3ccc(F)cc3)nc2s1 returned VDR inh 3.6%.
`CC(C)(C)C(=O)/C(C#N)=C/c1cccs1` gave VDR inh -9.4%.
For Cc1noc(C)c1-c1nc(CS(=O)(=O)c2ccc(F)cc2)no1 the results were VDR inh 15.3%.
For Cc1ccc(S(=O)(=O)c2nc(Nc3ccccc3)sc2Cl)cc1 the results were VDR inh -16.8%.
Screening c1ccc(-n2nnnc2-n2nnc3ccccc32)cc1 returned VDR inh 7.3%.
Screening OC(CNc1nc(-c2cccnc2)nc2ccccc12)c1ccccc1 (stereo not given) returned VDR inh 9.5%.
Screening CCCCNC(=O)c1ccccc1NC(=O)CN(c1ccccc1)S(=O)(=O)N(C)C returned VDR inh 2.8%&-24.7%.
Screening CCC1(c2ccccc2)NC(=O)N(C)C1=O (stereo not given) returned VDR inh -9.8%&2.3%.
`O=C1CC(C(=O)N2CCC(N3CCC(C(=O)NC4CC4)CC3)CC2)c2ccccc21` (stereo not given) gave VDR inh -13.6%.
CCN(CC)S(=O)(=O)c1cccc(C(=O)NC2CCCCC2)c1 was read as VDR inh -2.0%.
Screening CC(NC(=O)CNC(=O)C1CCCCC1)c1ccc(S(N)(=O)=O)cc1 (stereo not given) returned VDR inh -0.8%.
CN(CC(=O)Nc1cccc(Cl)c1)C1=NS(=O)(=O)c2ccccc21 was read as VDR inh -7.0%.
Screening CCc1nn(C(C)C(=O)N2CC(C)CC(C)C2)c(=O)c2cc3occc3n12 (stereo not given) returned VDR inh -10.5%.
Screening COc1cccc(OC)c1-c1nnc(-c2cn(C)c3ccccc23)o1 returned VDR inh 5.3%.
Screening CCN(CC)c1ccc(NC(=O)CSc2nnc(C)c(=O)[nH]2)cc1 returned VDR inh -2.4%.
`O=C(CS(=O)CC(=O)N(CC(=O)NC1CCCC1)c1ccccc1F)Nc1ccc(F)cc1` (stereo not given) gave VDR inh -3.2%.
`CC(C)CCN1CCN(Cc2cccs2)CC1CCO` (stereo not given) gave VDR inh 7.0%.
For COc1cc(/C=N/NC(=O)CNC(=O)c2cccs2)ccc1O the results were VDR inh 8.3%.
`O=C1CC2(CCN(C(=O)c3ccc(F)cc3)CC2)Oc2ccccc21` gave VDR inh -3.3%.
Screening Cc1cc2[nH]c(=O)c(=O)[nH]c2cc1S(=O)(=O)N1CCN(c2cccc(C)c2C)CC1 returned VDR inh 4.4%&11.7%.
`CSc1cccc(Nc2cc(C(=O)NCCCN(Cc3ccccc3)C(C)C)c3ccccc3n2)c1` gave VDR inh 1.9%.
O=c1c2cc(NC(=S)N3CCCCC3)ccc2nc2n1CCCCC2 was read as VDR inh 5.9%.
Cc1ccc(/C=C/S(=O)(=O)NCC(=O)OCC(=O)N2CC(=O)Nc3ccccc32)cc1 was read as VDR inh -8.5%.
Screening CC(C)C(NS(=O)(=O)c1cccc2nsnc12)C(=O)NCc1ccco1 (stereo not given) returned VDR inh -12.3%.
Screening CN(CC(=O)N1CCN(c2ccccn2)CC1)S(=O)(=O)c1ccccc1 returned VDR inh 4.5%.
Screening CC(=O)Nc1ccc(C(=O)OCC(=O)NC(=O)NC(C)(C)C)cc1 returned VDR inh 1.5%.
`CN(C)C(=O)CSc1ccc(S(=O)(=O)N2CCCC2)cn1` gave VDR inh -20.4%.
`CCOc1ncccc1C(=O)Nc1ccc(C)cn1` gave VDR inh -0.6%.
For O=C(CN1C(=O)C2CCCCN2C(=O)c2ccccc21)Nc1ccc(F)cc1 (stereo not given) the results were VDR inh -19.1%.
`C=CCn1c(SCC(=O)Nc2cccnc2Cl)nnc1-c1ccc(Cl)cc1` gave VDR inh -8.8%.
Screening COc1ccc2[nH]c(C(=O)N3CCN(c4ccccc4F)CC3)c(C)c2c1 returned VDR inh 14.2%.
`O=C(NCc1cccs1)c1ccc2c(c1)ncn2C1CCCC1` gave VDR inh 7.8%.
CC(=O)Oc1ccc(C(=O)OCC(=O)c2c(N)n(C)c(=O)n(C)c2=O)cc1OC(C)=O was read as VDR inh 3.8%.
Screening NS(=O)(=O)c1cccc(NC(=O)COC(=O)Cc2n[nH]c(=O)c3ccccc23)c1 returned VDR inh -4.7%.
For COc1cc(NS(=O)(=O)c2c(C)oc3c(F)c(F)c(F)c(F)c23)cc(OC)c1OC the results were VDR inh 9.0%.
Screening COc1ccc(CCNC(=O)c2n[nH]c(=O)c3ccccc23)cc1 returned VDR inh 5.0%.
Cc1cccc(NC(=S)N2CCN(S(C)(=O)=O)CC2)c1 was read as VDR inh -4.3%.
For CS(=O)(=O)N(CC(=O)NCCSCc1cccc(Cl)c1)c1ccc(F)cc1 the results were VDR inh -26.5%.
`COc1ccc(N2C(=O)CCC(C(=O)Nc3ccccn3)C2c2ccc(OC)c(OC)c2)cc1` (stereo not given) gave VDR inh 2.8%.
`COc1ccc(-c2nc3c(=O)n(C)c(=O)[nH]c3n2CCc2ccccc2)cc1` gave VDR inh -9.9%.
For Cc1ccc(CS(=O)(=O)c2ncc(Cl)c(C(=O)Nc3nnc(C)s3)n2)cc1 the results were VDR inh 25.1µM*.
`COc1ccc(S(=O)(=O)N2CCCC2=O)cc1N(C)S(C)(=O)=O` gave VDR inh -17.2%.
For Cn1c(CCNC(=O)c2cccs2)nnc1SCC(=O)N1CCN(c2ccccc2)CC1 the results were VDR inh 7.4%.
`CCCCOC(=O)Cn1c(=O)n(CC(=O)OCCCC)c2cc(C)ccc21` gave VDR inh 15.1%.
For Cc1cc(-c2ccc(C)c(S(=O)(=O)Nc3cccc(CN4CCCC4)c3)c2)on1 the results were VDR inh -1.4%.
Screening O=C(c1cc(C(=O)N2CCOCC2)c2nc3ccccc3n2c1)c1ccccc1O returned VDR inh -2.6%.
`Cc1cc(NC(=O)C(C)SCC(=O)OC(C)C(=O)Nc2cccc(C#N)c2)no1` (stereo not given) gave VDR inh -6.4%.
Screening CN(CC(=O)Nc1cccc(S(=O)(=O)NC2=NCCC2)c1)Cc1ccccc1Cl returned VDR inh 11.1%.
`COc1ccccc1-c1nc(CNC(=O)NC2CCCCC2)c(C)o1` gave VDR inh 13.5%.
CN1CCN(C2OC(=O)c3ccccc32)CC1 (stereo not given) was read as VDR inh -14.0%.
O=C(CSC1=Nc2ccccc2C2=NC(CC(=O)NC3CCCCC3)C(=O)N12)NCc1ccco1 (stereo not given) was read as VDR inh 1.9%.
Screening CCCS(=O)(=O)c1nc(S(=O)(=O)c2ccc(C)cc2)c(NCc2ccc3c(c2)OCO3)s1 returned VDR inh -2.5%.
`Cc1cc(C)n(Cc2cccc(F)c2)c(=O)c1C#N` gave VDR inh 13.3%.
For O=C(Nc1ccc(Nc2ccccc2)cc1)c1cccc(F)c1 the results were VDR inh -10.7%.
`O=C(CSc1nc2ccccc2n1Cc1ccc(Cl)cc1)N/N=C/c1ccccc1C(=O)O` gave VDR inh -19.9%.
COc1ccccc1NC(=O)CSc1nnc2c3ccccc3n(C(C)C)c2n1 was read as VDR inh -4.5%.
For CCOc1cnc(-c2c(-c3c(Cl)cccc3Cl)noc2C)o1 the results were VDR inh 6.8%.
Cc1ccc2nc3c(cc(C(=O)NCCc4ccccc4)c(=N)n3CCN3CCOCC3)c(=O)n2c1 was read as VDR inh -9.8%.
`O=C(NCCc1ccccc1)c1ccnc(/C=N/O)c1` gave VDR inh -5.1%.
`Nc1cccc(S(=O)(=O)Nc2ccc(Br)cc2)c1` gave VDR inh -9.2%.
`CSc1nc2n(n1)C(c1cc(Br)ccc1F)C(C(=O)N(C)C)=C(C)N2` (stereo not given) gave VDR inh -9.7%.
`CCCC/C(C)=N\NC(=O)CNS(=O)(=O)c1ccc([N+](=O)[O-])cc1` gave VDR inh -9.3%.
O=C(C[C@H]1C/C=C\CCC(=O)OC[C@H]2CCCN2C1=O)NCCO was read as VDR inh -8.3%.
`CC1=NN(C(=O)c2ccc(Cn3cc(Br)c([N+](=O)[O-])n3)o2)C(O)(C(F)(F)F)C1` (stereo not given) gave VDR inh 2.3%.
COc1ccc(N(Cc2ccccc2)S(=O)(=O)c2cccc(C(=O)NCC3CCCO3)c2)cc1 (stereo not given) was read as VDR inh 4.2%.
For CCOc1ccccc1CNn1cnnc1 the results were VDR inh -1.1%.
Screening C/C(=N\NC(=O)C1(C)CC1(Br)Br)c1ccc(C)cc1C (stereo not given) returned VDR inh -3.0%.
`COCc1cc(C)nc(OCC(=O)N/N=C/c2ccc(OC)c(OC)c2)c1C#N` gave VDR inh -1.5%.
`CN(C)C=NC(=O)c1cc(C(=O)c2ccc(F)cc2)c[nH]1` gave VDR inh 0.0%.
For Cc1ccc(C)c(NC(=S)NC(NC(=O)Cc2cccc3ccccc23)C(Cl)(Cl)Cl)c1 (stereo not given) the results were VDR inh -3.0%.
`C=CCn1c(SCc2nc3ccccc3c(=O)[nH]2)nc2ccccc2c1=O` gave VDR inh 0.8%.
For COC(=O)c1ccc(COc2ccccc2/C=C(\C#N)C(=O)Nc2c(C)cccc2C)cc1 the results were VDR inh inconclusive.
`O=C(CSc1nc2ccccc2n1Cc1ccccc1Cl)NCc1ccccc1` gave VDR inh 10.6%.
`COc1ccc(-c2nn(-c3ccc(F)cc3F)c3c2cnc2ccc(F)cc23)cc1` gave VDR inh 4.2%.
For COc1cccc2sc(N(Cc3cccnc3)C(=O)Cc3ccccc3)nc12 the results were VDR inh 5.5%.
Screening N#CNC(=Nc1cccc(C(F)(F)F)c1)SCc1ccc(C(=O)O)cc1 returned VDR inh -18.5%.
Screening COc1ccc(N2CCN(C(=O)CSc3nnc4c(C)cc5c(C)cc(C)cc5n34)CC2)cc1 returned VDR inh 7.9%.
O=C(Nc1cccc(NC(=O)c2cccnc2)c1)c1cccnc1 was read as VDR inh 5.1%.
Screening CCCCC(CC)CNC(=O)C1CC=CCC1C(=O)O (stereo not given) returned VDR inh 4.4%.
CCOC(=O)c1cc(-c2ccccc2)n(CCCC(=O)Nc2ccc(C)cc2C)c1C was read as VDR inh 8.9%.
For COc1ccc(C(C(=O)Nc2ccc3c(c2)OCO3)N(C)C(=O)Cc2c[nH]c3ccccc23)cc1 (stereo not given) the results were VDR inh -24.5%.
COc1ccc(CC(=O)Nc2ccc(S(=O)(=O)N(C)C3CCN(C)CC3)cc2)cc1 was read as VDR inh 7.7%.
Screening Cc1ccccc1N1C(=O)CC(Nc2ccc3c(c2)OCO3)C1=O (stereo not given) returned VDR inh -7.8%.
Screening COc1ccc(C)cc1N1C(=N)/C(=C2/Nc3ccccc3S2)C(c2ccccc2)C1=O (stereo not given) returned VDR inh inconclusive.
Screening COCCN(C(=O)COC(=O)c1ccco1)c1c(N)n(Cc2ccccc2)c(=O)[nH]c1=O returned VDR inh -10.3%.
Screening CCCSc1nc(NCc2ccco2)c2c3c(sc2n1)COC(C)(CC)C3 (stereo not given) returned VDR inh -29.8%.

Sorted by heavy-atom count (largest number first): three of the compounds above.
CCOC(=O)c1cc(-c2ccccc2)n(CCCC(=O)Nc2ccc(C)cc2C)c1C was read as VDR inh 8.9%.
Screening Cc1ccccc1N1C(=O)CC(Nc2ccc3c(c2)OCO3)C1=O (stereo not given) returned VDR inh -7.8%.
Screening CCCCC(CC)CNC(=O)C1CC=CCC1C(=O)O (stereo not given) returned VDR inh 4.4%.

In the list so far, these contain a Cl atom.
Screening O=c1oc2ccc3ccccc3c2cc1-c1nnc(Nc2cc(C(F)(F)F)ccc2Cl)s1 returned VDR inh 0.2%.
For O=C(OC1CCOC1=O)c1ccc(Cl)c(S(=O)(=O)N2CCOCC2)c1 (stereo not given) the results were VDR inh 10.8%.
For Cc1ccc(S(=O)(=O)c2nc(Nc3ccccc3)sc2Cl)cc1 the results were VDR inh -16.8%.
CN(CC(=O)Nc1cccc(Cl)c1)C1=NS(=O)(=O)c2ccccc21 was read as VDR inh -7.0%.
`C=CCn1c(SCC(=O)Nc2cccnc2Cl)nnc1-c1ccc(Cl)cc1` gave VDR inh -8.8%.
For CS(=O)(=O)N(CC(=O)NCCSCc1cccc(Cl)c1)c1ccc(F)cc1 the results were VDR inh -26.5%.
For Cc1ccc(CS(=O)(=O)c2ncc(Cl)c(C(=O)Nc3nnc(C)s3)n2)cc1 the results were VDR inh 25.1µM*.
Screening CN(CC(=O)Nc1cccc(S(=O)(=O)NC2=NCCC2)c1)Cc1ccccc1Cl returned VDR inh 11.1%.
`O=C(CSc1nc2ccccc2n1Cc1ccc(Cl)cc1)N/N=C/c1ccccc1C(=O)O` gave VDR inh -19.9%.
For CCOc1cnc(-c2c(-c3c(Cl)cccc3Cl)noc2C)o1 the results were VDR inh 6.8%.
For Cc1ccc(C)c(NC(=S)NC(NC(=O)Cc2cccc3ccccc23)C(Cl)(Cl)Cl)c1 (stereo not given) the results were VDR inh -3.0%.
`O=C(CSc1nc2ccccc2n1Cc1ccccc1Cl)NCc1ccccc1` gave VDR inh 10.6%.
